# Assay outcomes from PubChem BioAssay.
# TRPML1 ag: activates the human TRPML1 channel. 410,000 compounds, 0.12% hits. AID 624414. Q9GZU1. activation, % (test concentration not listed). TRPML1-expressing cells, Ca2+ dye fluorescence, FDSS; host cell line not named in the record; reference of the full effect not given here; in the data active = activation above about 50%; inconclusive = about 30% to 50%; inactive = below about 30%; further: 0% is about no effect; the text of the record puts the active cut at 80%
# Target sequence (Q9GZU1 whole entry, looked up): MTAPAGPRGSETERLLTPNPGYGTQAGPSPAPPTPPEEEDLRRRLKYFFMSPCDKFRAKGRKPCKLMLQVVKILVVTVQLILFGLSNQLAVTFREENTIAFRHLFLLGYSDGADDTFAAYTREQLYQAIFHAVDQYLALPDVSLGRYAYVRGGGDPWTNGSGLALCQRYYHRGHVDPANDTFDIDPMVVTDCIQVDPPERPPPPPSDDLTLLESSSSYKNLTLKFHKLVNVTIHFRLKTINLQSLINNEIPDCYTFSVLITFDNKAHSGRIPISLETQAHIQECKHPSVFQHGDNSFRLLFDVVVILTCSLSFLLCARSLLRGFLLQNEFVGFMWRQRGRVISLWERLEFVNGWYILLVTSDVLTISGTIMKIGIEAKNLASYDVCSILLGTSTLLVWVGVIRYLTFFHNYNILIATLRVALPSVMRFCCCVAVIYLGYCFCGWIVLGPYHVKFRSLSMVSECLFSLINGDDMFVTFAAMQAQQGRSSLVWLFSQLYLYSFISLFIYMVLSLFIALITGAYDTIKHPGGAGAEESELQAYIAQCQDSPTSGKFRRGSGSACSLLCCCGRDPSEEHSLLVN
#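 TRPML1-DL cells, Tet-induced overnight (~16 h, 37 degrees C), loaded 45-90 min at room temperature with Ca8 no-wash calcium dye plus quencher. FDSS fluorescence: 10 s baseline, compound pin-transfer, 110 s agonist read, then EC80 54-4 (4uM final) and 110 s antagonist read.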
# D2 agonist: agonists of human D2 dopamine receptor (beta-arrestin); DiscoveRx PathHunter D2 beta-arrestin, luminescence, 90 min; 100% = 57 uM dopamine signal; activation, % (concentration not given with the values); 360,000 compounds, 0.084% hits; in the data active = activation above about 40%; inconclusive = about 15% to 40%; inactive = below about 15%; further: the text of the record calls up to 30% inactive
# Target sequence (P14416 whole entry, looked up): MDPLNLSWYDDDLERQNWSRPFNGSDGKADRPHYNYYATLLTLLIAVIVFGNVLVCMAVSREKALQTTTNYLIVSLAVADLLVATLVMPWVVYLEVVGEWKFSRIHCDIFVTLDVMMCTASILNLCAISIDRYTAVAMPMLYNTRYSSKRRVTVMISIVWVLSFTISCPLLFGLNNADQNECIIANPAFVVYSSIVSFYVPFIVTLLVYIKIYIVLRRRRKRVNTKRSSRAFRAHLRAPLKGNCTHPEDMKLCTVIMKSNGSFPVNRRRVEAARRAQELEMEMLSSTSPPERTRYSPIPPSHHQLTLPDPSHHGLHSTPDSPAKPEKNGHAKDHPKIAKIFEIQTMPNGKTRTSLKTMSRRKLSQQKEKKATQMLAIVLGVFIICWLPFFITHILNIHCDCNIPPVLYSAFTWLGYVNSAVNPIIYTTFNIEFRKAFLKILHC
#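 Agonist mode: compounds alone added to overnight-plated D2 PathHunter cells for 90 min at 37 C, with 57 uM final dopamine (EC100) defining full response. Beta-arrestin recruitment detected by chemiluminescent reagent, read after 1 h at ambient temperature.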
# CtBP-E1A blk: CtBP/E1A binding inhibition; AID 651724; 340,000 compounds, 0.49% hits; activity change, % (concentration not given with the values); AlphaScreen GST-E1A/His-CtBP binding, 1536-well; hits give low values; control for the full effect not named in the record; in the data active means activity change below about -65%; inconclusive means about -30% to -65%; inactive means above about -30%; further: on the % scale 0 is the no-effect control and ±100 the full control effect
#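 In 5 uL wells, 23 nL compound meets equimolar GST-E1A and His-CtBP (5X stock 125 nM each) for 2 h, 37 °C. Beads (5X, 50 ug/mL) then 1 h, 37 °C, dark.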
# Six1-Eya2 inh: inhibitors of human Six1/Eya2 interaction | Q15475+O00167 | AlphaScreen GST-Six1/His-Eya2 binding, biochemical; hits give low values; control for the full effect not named in the record | activity change, % (no concentration beside the values) | 360,000 compounds, 0.56% hits | AID 651725; in the data active = activity change below about -65%; inconclusive = about -30% to -65%; inactive = above about -30%; further: on the % scale 0 is the no-effect control and ±100 the full control effect
#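 Compounds are tested against tagged Six1 and Eya2 proteins bridged by glutathione donor and nickel acceptor beads; after a one-hour incubation at 37 °C without light, AlphaScreen emission is recorded.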
# TRPML1 blocker: human mucolipin-1 channel inhibition; 390,000 compounds, 0.02% hits; activity change, negative = inhibition, % (no concentration beside the values); TRPML1-inducible cells, Ca2+ dye fluorescence, FDSS; hits give low values; inhibition of EC80 agonist-evoked calcium signal; AID 624415; in the data active means activity change below about -50%; inconclusive means about -30% to -50%; inactive means above about -30%;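 further: stimulus is agonist 54-4 at its EC80 concentration; on the % scale 0 is the no-effect control and ±100 the full control effect; compound concentration not given in the record; the text of the record puts the active cut at -80%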
#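 Tet-induced TRPML1-DL cells loaded with Ca8 no-wash calcium dye were read kinetically on FDSS. Compound addition was followed by EC80 agonist 54-4 (4 uM final); inhibition was read over 110 s.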
# PINK1 modulator: PINK1 expression modulation; PINK1 immunofluorescence, high-content cytometry, 24 h; Potency, µM (highest dose often 76.6 µM), inactives show at the top dose activation (PINK1 increase), actives largely listed as activators; 410,000 compounds, 0.2% hits; active = well fitted activation curve with a large enough effect; inconclusive = small, poorly fitted or top-dose-only effect; inactive = flat fitted curve, though single readings scatter; cell line not stated here;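 further: potency means the concentration at half of the fitted maximal effect; % of control where 0% means no effect; nearly all actives have a fitted effect of over 65% in size; a mitochondrial uncoupler was the plate control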
#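 Stable cell line, 250 cells/well, 12 h attachment; compounds pinned at 5 concentrations, 24 h; CCCP control. Fixed with nuclear dye, primary antibodies 12 h at 10 degrees C, secondary plus cell stain; laser-scanning cytometer read.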
# * marks the source's active call; other numbers are inactive results; ? = inconclusive; / = no result given; [ ] = another dose, or the depositor's remark.
SMILES,TRPML1 ag,D2 agonist,CtBP-E1A blk,Six1-Eya2 inh,TRPML1 blocker,PINK1 modulator
Cc1ccc(SC2=C(C(=O)O)CCCC2)cc1,0.1,-1.2,5,6,9,1.7%
CCCCC(=O)Nc1ccc(C(=O)Nc2ccc(S(=O)(=O)Nc3ccc(C)cc3)cc2)cc1,0.8,2.6,-5,8,-9,3.8%
CC1C(=O)C(C)C(c2ccc3c(c2)OCO3)NC1c1ccc2c(c1)OCO2 (configuration not stated),2.7,-1.5,1,-8,-5,29%[38.3 µM]
Fc1cccc2sc(Nc3nc4c(F)cccc4s3)nc12,0.1,0.1,-7,-14,16,21%
Cc1noc(C)c1C(=O)OCC(=O)N1CCc2ccccc21,0.4,-0.4,26,1,-14,12%
CCOc1ccc(C2c3[nH]c4ccccc4c3CCN2C(=O)Cc2cccc(OCC)c2OCC)cc1 (configuration not stated),0.1,/,/,/,-4,1.4%
CCOc1ccc(CCNC(=O)CN2C(=O)COc3ccc(S(=O)(=O)N4CCCC4)cc32)cc1,0.4,/,/,/,2,0.0%
COc1ccccc1NC(=O)CN1C(=O)c2cccc3cccc1c23,-1.5,/,/,/,-16,6.2%
COc1ccc(C(=O)CSc2nnc(CNc3ccc(C)cc3C)n2Cc2ccco2)cc1,-0.4,-1.2,?,?,-2,-1.0%
Cc1cccc(-c2nc(SCC(=O)Nc3ccc4c(c3)OCO4)c(-c3ccccc3)[nH]2)c1,5.2,/,/,/,25,2.8%
CCc1nc(Nc2ccccc2F)c2oc3ccccc3c2n1,1.4,3.8,8,22,23,7.8%
CCOC(=O)C(Cc1ccc(N)cc1)N1C(=O)c2ccccc2C1=O (configuration not stated),-0.3,1.7,/,-4,-2,1.4%
O=C(N/N=C/c1c(Cl)cccc1Cl)c1ccc(F)cc1,1.5,-2.5,3,2,-3,6.2%[38.3 µM]
Cc1nn(C)c(C(=O)NNC(=S)Nc2ccc(Cl)cc2)c1[N+](=O)[O-],0.0,-6.9,-4,-5,8,5.6%[38.3 µM]
CSc1cccc(Nc2ccc(S(=O)(=O)N3CCOCC3)cc2[N+](=O)[O-])c1,0.1,1.1,/,?,17,-0.5%
O=C(NCc1ccc2c(c1)OCO2)c1c(-c2ccccc2)sc2ccccc12,2.1,-2.5,-11,9,31,7.9%
COc1ccc(C(C(=O)NCC2CCCO2)N(C(=O)CNC(=O)c2ccco2)c2cc(C)ccc2C)cc1OC (configuration not stated),-0.2,-6.1,0,-19,2,-0.3%
COc1ccc2sc(-c3ccccc3OC)c(-c3ccc(OCCN4CCCC4)cc3)c2c1,-0.5,2.6,-16,?,6,-0.7%
Cc1nn(CC(=O)NCCc2ccc(Cl)cc2Cl)c(C)c1[N+](=O)[O-],3.9,1.9,-17,-1,38,-1.3%
COc1ccc(N=C2CCCN2CC(N)=O)cc1,-0.4,-0.9,5,-2,12,-0.1%
O=C(O)COc1c(Cl)cc(/C=C2/NC(=O)NC2=O)cc1Br,0.0,0.0,/,-11,59,-0.4%
Cc1ccc(S(=O)(=O)c2ncccc2[N+](=O)[O-])cc1,4.0,-3.2,/,-24,-6,-2.5%
CCOc1ccc(-c2nnn(CC(=O)NCCc3c[nH]c4ccccc34)n2)cc1,-0.3,-2.6,6,0,18,/
Cc1noc(C)c1S(=O)(=O)N1CCCC(C(=O)N2CCC(C)CC2)C1 (configuration not stated),-0.2,-0.3,0,1,0,-0.3%
COc1ccccc1/C=C\C=N\NC(=O)c1ccco1,-0.6,-0.1,-2,2,-3,0.4%

# Structures above containing two or more sulfur atoms, in the order listed:
SMILES,TRPML1 ag,D2 agonist,CtBP-E1A blk,Six1-Eya2 inh,TRPML1 blocker,PINK1 modulator
Fc1cccc2sc(Nc3nc4c(F)cccc4s3)nc12,0.1,0.1,-7,-14,16,21%
CSc1cccc(Nc2ccc(S(=O)(=O)N3CCOCC3)cc2[N+](=O)[O-])c1,0.1,1.1,/,?,17,-0.5%

# Four records picked at random from the list so far, as already listed:
SMILES,TRPML1 ag,D2 agonist,CtBP-E1A blk,Six1-Eya2 inh,TRPML1 blocker,PINK1 modulator
CCOc1ccc(C2c3[nH]c4ccccc4c3CCN2C(=O)Cc2cccc(OCC)c2OCC)cc1 (configuration not stated),0.1,/,/,/,-4,1.4%
CCOc1ccc(-c2nnn(CC(=O)NCCc3c[nH]c4ccccc34)n2)cc1,-0.3,-2.6,6,0,18,/
CCOc1ccc(CCNC(=O)CN2C(=O)COc3ccc(S(=O)(=O)N4CCCC4)cc32)cc1,0.4,/,/,/,2,0.0%
CC1C(=O)C(C)C(c2ccc3c(c2)OCO3)NC1c1ccc2c(c1)OCO2 (configuration not stated),2.7,-1.5,1,-8,-5,29%[38.3 µM]

# The listing continues.
SMILES,TRPML1 ag,D2 agonist,CtBP-E1A blk,Six1-Eya2 inh,TRPML1 blocker,PINK1 modulator
O=C(CSc1nncs1)NCCNC(=O)CSc1nncs1,-0.2,-7.2,3,7,-16,-1.0%
Cc1ccc(/C=N/NC(=O)Cc2cccn2C)cc1,-0.8,-4.1,-9,-2,5,-0.2%
COc1cccc2sc(=NC(=O)CS(=O)(=O)c3ccc(Cl)cc3)n(C)c12,0.2,1.4,7,4,-3,0.1%
COc1ccc(CCNC(=O)c2cc(-c3ccc(C)c(C)c3)nc3ccccc23)cc1OC,0.8,/,/,/,57,4.4%
Cc1ccc(/C=C/C(=O)c2ccc(C)cc2)cc1,1.8,8.4,7,3,7,?
Cc1ccc(S(=O)(=O)Nc2c(C)n(C)n(-c3ccccc3)c2=O)cc1C(=O)OC(C)C(=O)N(C)c1ccccc1 (configuration not stated),-0.6,-3.3,-13,?,-5,13%
CC(=O)N1CCCc2cc(S(=O)(=O)Nc3ccc(C)c(F)c3)ccc21,1.1,/,/,/,-19,1.1%
CCC(Sc1nc(N)c(NC(=O)c2ccc(OC)cc2)c(=O)[nH]1)C(=O)O (configuration not stated),-0.7,-1.0,5,12,-5,2.2%
COc1ccc(C(CCNCc2ccc(N(C)C)cc2)c2ccccc2)cc1 (configuration not stated),0.9,3.0,?,?,-17,-3.7%
COC(=O)Cc1c(O)ccn(Cc2ccc(F)cc2)c1=O,-0.4,-2.5,5,12,-23,4.1%
O=C(Oc1cc2oc(=O)c3c(c2cc1Cl)CCCC3)c1ccco1,1.4,-0.6,1,5,-9,-1.8%
Cc1cc(C)nc(SCc2nnc(SCc3ccc([N+](=O)[O-])cc3)n2Cc2ccco2)n1,3.1,-0.6,1,2,2,3.2%
O=c1oc(-c2cccnc2)nc2ccccc12,-0.5,-3.8,0,-13,-16,1.2%
CN1CCN(c2ccccc2NC(=O)Cc2ccc(Cl)cc2)CC1,0.0,-1.7,-2,-11,-1,3.3%[38.3 µM]
CCCS(=O)(=O)N1CCC(C(=O)c2cccc(C(F)(F)F)c2)CC1,3.6,-0.4,2,4,3,2.5%[38.3 µM]
COc1ccc(C2C3=C(CC(C)(C)CC3=O)Oc3ncn(CC(C)C)c(=N)c32)cc1 (configuration not stated),1.1,2.4,0,3,-10,-1.7%
COc1ccc(S(=O)(=O)N(C)C[C@H]2Oc3c(NS(=O)(=O)c4cn(C)cn4)cccc3C(=O)N([C@H](C)CO)C[C@@H]2C)cc1,0.6,0.4,5,-2,-2,1.6%
N#Cc1ccccc1NC(=O)CSc1nnc(-c2ccc(F)cc2)n1-c1ccccc1,2.0,-3.4,-2,9,-8,-0.6%
O=C(CNc1cccc(S(=O)(=O)N2CCOCC2)c1)Nc1ccc(C(F)(F)F)cc1,0.0,0.7,4,4,14,1.7%
COc1cc(NC(=O)CN2C(=O)NC(c3ccccc3)(c3ccccc3)C2=O)c(C)cc1[N+](=O)[O-],0.7,4.4,-9,0,0,-1.8%
CCCNC(=O)N1CCC(Cc2ccccc2)CC1,-0.5,-0.6,12,-3,19,-0.4%
O=C(NCCCN1CCOCC1)c1cc(-c2cccc(O)c2)on1,0.8,-4.5,-6,-15,31,-2.4%
O=C(NC1CCCCC1)C(c1ccccc1)N1CCC2(CC1)OCCO2 (configuration not stated),-0.5,-1.6,-9,-6,-5,1.1%
CCOC(=O)C(=NC1CCCCC1)NNc1cccc(C(F)(F)F)c1,-0.1,?,3,-11,0,?
CCOC(=O)C1=CCC(c2ccc(Cl)cc2)N(S(=O)(=O)c2ccc(C)cc2)C1 (configuration not stated),1.8,-1.5,0,17,69,4.8%
# Remaining list, next part:
SMILES,TRPML1 ag,D2 agonist,CtBP-E1A blk,Six1-Eya2 inh,TRPML1 blocker,PINK1 modulator
O=C(Cn1c(C(F)(F)F)nc2ccccc21)N1CCCC1,-0.7,1.1,9,6,6,-1.5%
O=C1CCCN2N=C(SCC(=O)Nc3nc4ccccc4s3)SC2=N1,0.3,1.3,/,-3,-2,?
O=S(=O)(NCCN1CCOCC1)c1ccc2ccccc2c1,-0.1,-6.3,-16,0,-2,1.0%
Cc1ccc(C(=O)Nc2ncccc2C)o1,0.3,-1.0,1,10,6,-0.3%
CCOc1cc(N2CCOCC2)c(OCC)cc1NC(=O)COc1ccccc1[N+](=O)[O-],2.7,1.8,-5,0,-28,13%
CCC(=O)N1CCc2cc(Br)cc(S(=O)(=O)N3CCC(C(=O)Nc4cccc(C)c4)CC3)c21,3.4,/,/,/,-7,4.3%
Cc1ccc(OCCOc2ccc(S(=O)(=O)N3CCCC3)cc2C(N)=O)cc1,-0.1,-3.4,/,-7,2,3.1%
CC(Oc1cc(-c2ccccc2)cc2ccccc12)C(=O)N1CCOCC1 (configuration not stated),-0.7,-1.7,-2,-6,0,-0.9%
COC(=O)c1cc(NC(=O)c2cc(-c3ccc(C(F)(F)F)cc3)oc2C(F)(F)F)ccc1N1CCOCC1,0.5,1.8,-11,-15,6,11%
c1ccc(C(c2ccccn2)c2ccccn2)cc1,1.2,2.4,17,6,12,-1.5%
C/C(=N\O)C(=O)NCCCNCCCN(C)C,0.8,-2.3,6,4,-5,-1.8%
Cc1ccc([C@@H]2CC(=O)[C@@H]3CN(S(=O)(=O)c4ccc(C)cc4)[C@H](c4ccccc4)C[C@@H]3N2S(=O)(=O)c2ccc(C)cc2)cc1,-0.1,-6.1,-2,-4,39,3.1%
Cc1cc(C)nc(SCC(=O)Nc2ncc3c(n2)CCCC3=O)n1,-0.7,-0.2,1,2,8,-1.8%
CC(C)NC(=O)C1CCN(S(=O)(=O)c2ccc(N3CCCC3=O)cc2)CC1,0.3,-0.4,-8,5,-2,-0.9%
COc1ccc(CCC(=O)NNC(=O)c2ccc(F)cc2)cc1,0.0,-0.9,7,10,-9,1.5%
Cc1cccc(Cn2c(O)c(N=NC(=S)Nc3ccccc3F)c3ccccc32)c1,0.9,8.5,/,-14,51,3.5%
c1ccc(-c2nnc(-c3ccncc3)o2)cc1,-0.1,1.9,8,3,13,/
C=C1CCN(c2ccc(C(=O)NCc3ccccc3)cc2[N+](=O)[O-])CC1,-0.8,-3.2,-9,-9,3,0.4%
COc1ccc(OCc2nnnn2-c2ccccc2)cc1,0.8,1.5,5,6,28,-2.8%[38.3 µM]
COc1ccc(CNC(=S)N/N=C(/C)c2ccccc2)cc1,0.5,-14,?,?,5,-0.8%
O=C1COc2ccc(S(=O)(=O)CCC(=O)N3CCN(c4cccc(Cl)c4)CC3)cc2N1,-0.8,2.5,/,7,-11,0.2%
O=C(c1ccc(S(=O)(=O)N2CCCCC2)cc1)N1CCN(CCN2C(=O)c3cccc4cccc(c34)C2=O)CC1,0.9,1.1,0,-1,3,-0.3%
